Compound activity: PubChem BioAssay, National Center for Advancing Translational Sciences (NCATS)
D2 ag – activates the human D2 dopamine receptor | 0.084% of 360,000 active | P14416 | activation, % (concentration not given with the values) | DiscoveRx PathHunter D2 beta-arrestin, luminescence, 90 min; 100% = 57 uM dopamine signal | AID 624465; in the data active = activation above about 40%; inconclusive = about 15% to 40%; inactive = below about 15%; also: compound concentration not given in the record; the text of the record calls up to 30% inactive
Target sequence (P14416 whole entry, looked up): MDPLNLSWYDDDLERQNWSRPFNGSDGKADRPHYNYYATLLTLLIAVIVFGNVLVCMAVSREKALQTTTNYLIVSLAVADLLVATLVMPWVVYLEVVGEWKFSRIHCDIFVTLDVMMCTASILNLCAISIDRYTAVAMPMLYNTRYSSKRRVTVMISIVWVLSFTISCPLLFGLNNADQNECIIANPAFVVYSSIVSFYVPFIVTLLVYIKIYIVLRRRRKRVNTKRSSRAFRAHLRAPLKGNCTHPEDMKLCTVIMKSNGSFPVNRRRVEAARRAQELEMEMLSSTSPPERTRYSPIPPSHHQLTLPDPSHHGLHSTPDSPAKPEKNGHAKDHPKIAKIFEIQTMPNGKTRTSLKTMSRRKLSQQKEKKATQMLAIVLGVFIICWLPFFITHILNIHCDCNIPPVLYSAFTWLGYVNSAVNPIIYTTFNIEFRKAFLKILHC
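Agonist mode: compounds alone added to overnight-plated D2 PathHunter cells for 90 min at 37 C, with 57 uM final dopamine (EC100) defining full response. Beta-arrestin recruitment detected by chemiluminescent reagent, read after 1 h at ambient temperature.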
gsp agonist – agonists of gsp mutant (McCune-Albright syndrome). 0.13% of 340,000 active. AID 624287. Potency, µM (top dose mostly 76.9 µM), for the others: at the highest dose activation (cAMP increase), usual class: activators. gsp mutant cells, cAMP HTRF, 30 min; control for the full effect not named in the record; active = well fitted activation curve with a large enough effect; inconclusive = small, poorly fitted or top-dose-only effect, or another doubt; inactive = no such curve, though single readings can be large or run the other way; cell line not stated here;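 also: phosphodiesterase inhibitor Ro 20-1724 added with compounds to block cAMP breakdown; potency is read from the fitted curve at half-maximal effect; nearly all actives have a fitted effect of over 60% in size; about a fifth of the inactives were tested at one dose only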
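Cells in DMEM/10% FBS with G418 were pretreated with compounds in DMSO plus […] (300 uM stock) for 30 min at 37C. cAMP was measured by HTRF (cAMP-d2 plus anti-cAMP antibody-K) after 30 min at room temperature.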
PINK1 modulator – PINK1 expression modulation; PINK1 immunofluorescence, high-content cytometry, 24 h; AID 624263; 0.2% of 410,000 active; Potency, µM (doses to about 76.6 µM), without a hit: at the top dose activation (PINK1 increase), usual class: activators; active = well fitted activation curve with a large enough effect; inconclusive = small, poorly fitted or top-dose-only effect; inactive = flat fitted curve, though single readings scatter; cell line not stated here;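 also: potency is read from the fitted curve at half-maximal effect; % of control where 0% means no effect; nearly all actives have a fitted effect of over 65% in size; a mitochondrial uncoupler was the plate control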
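Measures PINK1 amount and localization on or inside mitochondria by immunofluorescence. Stable cells get compounds at 5 concentrations for 24 hours before fixation and staining; CCCP controls included.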
Menin MLL FP FL – inhibitors of human menin-MLL interaction, wild-type MLL peptide; AID 1766; FP activity change, % at 61.4 µM; 290,000 tested, under 10 active; Fluorescence polarization, fluorescein-MLL peptide displacement from menin; inconclusive = falling polarisation curve, or a change in total fluorescence; inactive = total fluorescence flat and polarisation flat or rising; no compound was filed as active; the % refers to the polarisation; negative = inhibition;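 also: % of control where 0% means no effect; inhibitors lower the polarisation; unlabelled MLL peptide was the positive control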
Sfp PPTase inh – inhibitors of Bacillus subtilis Sfp phosphopantetheinyl transferase | Q9F4F7 | Biochemical Sfp PPTase activity, qHTS | Potency, µM, inactives show max response, negative = inhibition, actives largely listed as inhibitors | 3.5% of 310,000 active | AID 1490; active = well fitted inhibition curve with a large enough effect; inconclusive = small, poorly fitted or top-dose-only effect, or another doubt; inactive = no such curve, though single readings can be large or run the other way;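 also: the enzyme is Sfp with the accession as filed and its product quenches rhodamine fluorescence; potency is read from the fitted curve at half-maximal effect; 0% = enzyme reaction without inhibitor and -100% = no enzyme wells; top concentration of the series not given in the record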
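Buffer: 50 mM Hepes-Na pH 7.6, 10 mM MgCl2, 0.01% Nonidet P-40, 0.01% BSA. Enzyme 15 nM, pre-exposed to compound 15 min; substrates then added and fluorescence change tracked over 30 min.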
ClpP mod – qHTS Assay for Activators of ClpP; purified B. subtilis ClpP, FRET peptide cleavage, 20 min; 1.9% of 340,000 active; Potency, µM (series often up to 57.5 µM), inactives show at the highest dose activity change, negative = active; active = well fitted falling curve with a large enough effect; inconclusive = small, poorly fitted or top-dose-only effect; inactive = no such curve, though single readings can be large or run the other way; also: potency is read from the fitted curve at half-maximal effect; the source files actives as falling curves though it sought activators and does not explain the sign; nearly all actives have a fitted effect of over 65% in size; many hits overshoot -100%
Target sequence (P80244 whole entry, looked up): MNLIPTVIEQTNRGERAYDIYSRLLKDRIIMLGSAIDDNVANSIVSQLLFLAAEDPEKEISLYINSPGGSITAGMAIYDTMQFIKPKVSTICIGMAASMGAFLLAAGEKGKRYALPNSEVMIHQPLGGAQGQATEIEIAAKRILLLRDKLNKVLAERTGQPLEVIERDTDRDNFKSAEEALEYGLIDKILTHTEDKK
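ClpP 10 microg/mL final, pH 8 Tris/KCl buffer with BSA, glycerol, Tween-20; compound pinned in; FRET-FV substrate; RT 20 min; Ex320/Em430; ΔFRET vs ADEP 5.8 microM, DMSO, no enzyme.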
gsp antagonist – antagonists of gsp mutant (McCune-Albright syndrome); Potency, µM (titrated, usually from 76.9 µM), without a hit: top-dose activity change, negative = inhibition, most hits filed as inhibitors; gsp-mutant cells, cAMP HTRF, 30 min; control for the full effect not named in the record; 0.4% of 340,000 active; AID 624288; active = falling curve of any shape with a large fitted effect; inconclusive = falling curve, mostly with a smaller effect; inactive = flat or rising curve; cell line not stated here;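 also: intracellular cAMP measured with PDE inhibitor Ro 20-1724 present during compound exposure; potency is read from the fitted curve at half-maximal effect; % is scaled to controls: 0 for no effect and ±100 for the full control effect; nearly all actives have a fitted effect of over 65% in size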
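HTRF cAMP read-out (cAMP-d2 plus anti-cAMP antibody-K in lysis buffer, 30 min RT). Before lysis, cells are exposed to compounds with […] for 30 min at 37C in DPBS containing Ca/Mg, BSA and Tween 20.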
Active calls of the source: *; u = inconclusive; x = no result given; & = joins results of further samples; [ ] = remark or other dose.

SMILES | D2 ag | gsp agonist | PINK1 modulator | Menin MLL FP FL | Sfp PPTase inh | ClpP mod | gsp antagonist
COc1ccc2nc(NC(=O)C3COc4ccccc4O3)sc2c1 (centres undefined) | -1.8 | -10% | -0.4% | 4.8 | u | -2.9% | -8%
Cc1cccc(-c2nnc(SCC(=O)Nc3ncccn3)n2C)c1 | -1.9 | u | -0.5% | 0.3 | 18% | x | 1%
CCOc1cc(C(=O)OCC(=O)Nc2cccc(S(=O)(=O)NC3=NCCCCC3)c2)cc(OCC)c1OCC | 2.2 | u | 1.2% | x | x | -4.5% | -9%
COCCn1c(C)cc(C(=O)COC(=O)C23CC4CC(CC(O)(C4)C2)C3)c1C | -2.6 | 8% | 3.7%[38.3 µM] | 3.3 | 6% | 3.9% | -8%
COC(=O)C1CCN(C(=O)COC(=O)CC(NC(N)=O)c2ccc(Cl)cc2)CC1 (centres undefined) | -3.1 | 26% | 1.7% | 4.8 | 9% | -0.4% | 6%
COc1ccc(CCNC(=O)/C(=C/c2cccnc2)NC(=O)c2ccccc2)cc1OC | -1.4 | 5%[15.4 µM] | 0.4% | 1.1 | 3% | x | -6%
CCC(=O)Oc1ccc(C(=O)Nc2cccc(C(=O)NC(C)(C)C)c2)cc1 | 8.3 | 22% | 1.1% | -5.3 | 22% | x | -11%
CN(C)c1nc2c(c(=O)[nH]c(=O)n2C)n1CCCc1ccccc1 | -0.1 | 0%[15.4 µM] | -0.2% | 2.6 | 31%[activator] | -2.3% | 4%
O=C(NCc1nnnn1-c1ccc(F)c(F)c1)c1ccc2c(c1)OCO2 | -4.3 | 8%[15.4 µM] | 2.8% | x | x | -0.3% | 10%
COc1ccc(CCC(C(O)C(F)(F)F)S(=O)c2ccccc2)cc1 (centres undefined) | 0.4 | -21% | -2.1%[38.3 µM] | -0.4 | -22% | 0.1% | -11%
N#Cc1c(-c2ccccc2)nc(SCC(=O)N(c2ccccc2)c2ccccc2)[nH]c1=O | 1.5 | 20% | 3.1% | 13 | -5% | -2.2% | 0%
CC1(C)CC(NC(=O)c2ccccn2)CC(C)(C)N1O | 0.7 | -18% | 3.7% | 4.6 | 8% | -0.5% | -14%
Cc1cc(C)c(C)c(OCCCOc2cccc3cccnc23)c1 | 1.2 | -5% | 1.0% | 12 | 71µM* | -0.3% | 6%
COc1ccc(S(=O)(=O)N2CCCC(C(=O)NCc3cccnc3)C2)cc1C (centres undefined) | -1.7 | -92%[inhibitor] | 0.8% | x | x | 0.1% | x
CCc1nc2c(OCc3cc(Cl)cc(Cl)c3)cccn2c1N(C)C(=O)CC(C)C | -3.4 | x | u | x | x | -2.4% | x
C[C@H](CO)N1C[C@H](C)[C@@H](CN(C)S(=O)(=O)c2cn(C)cn2)Oc2ccc(NC(=O)Cc3ccccc3)cc2C1=O | 1.3 | x | 1.6% | x | x | 0.3% | 14%
Nc1ccccc1-c1n[nH]c(=S)s1 | 4.2 | u | 0.8% | -6.1 | -25% | 3.3% | -17%
COc1cc2[nH]c(=O)n(CCCCCC(=O)NCCc3c[nH]c4ccccc34)c(=O)c2cc1OC | -1.0 | 3% | 0.2% | -0.3 | 5% | -17% | -8%
Cc1ccc(C2C(/C=C3/SC(=S)NC3=O)=C(c3cccs3)Oc3ccccc32)cc1 (centres undefined) | -3.1 | -6% | x | 2.9 | -8% | -2.8% | -27%
COCCc1nn2c(=O)cc(COC(=O)c3cc(OC)c(OC)c(OC)c3)nc2s1 | 0.7 | 5% | -0.6% | x | 17% | -0.7% | -15%
CN(C)N1C(N)=C(C#N)C(c2ccc(F)cc2)C2=C1CCCC2=O (centres undefined) | -0.7 | 6% | 5.3% | 0.1 | -5% | x | 0%
O=C(NCC(=O)N1CCN(Cc2ccccc2)CC1)c1ccc(Br)cc1 | -1.3 | -24% | -1.2% | x | 13% | 0.6% | -2%
CSc1ncc(C(=O)Nc2ccc(Br)cn2)c(C)n1 | -3.3 | u | 2.3% | u | 2% | -9.2% | 0%
Cc1ccc(C(=O)/C=C\C(=O)c2ccc(C)cc2)cc1 | -2.8 | 28% | 2.2% | 0.5 | 1.8µM* | 0.8% | 10%
C=CCN(Cc1ccc(Br)s1)C(=O)c1ccc(OCc2c(C)noc2C)cc1 | 2.7 | 17% | 5.3% | x | x | 1.4% | x
O=C(OCC(=O)c1c[nH]c2ccccc12)c1cc(Br)ccc1O | -0.4 | 16%[15.4 µM] | 6.4% | -0.5 | 11% | x | -2%
CC(CCc1ccccc1)NC(=O)c1cc2sccc2n1C (centres undefined) | -2.9 | -34%[inhibitor] | 7.1%[38.3 µM] | -1.8 | 11% | -0.6% | -10%
COc1cc(C#Cc2c(-c3cncn3C)n(C)c3ccc(-c4cnc(OC)nc4)cc23)cc(OC)c1 | 2.9 | x | 4.2% | x | x | 4.8% | -2%
COc1ccc(C(=O)N/N=C/c2ccc(OC(=O)c3cccs3)cc2)cc1 | -2.5 | -18% | 0.9% | 4.4 | 11% | 1.2% | 12%
CC1CCCC/C1=N\NS(=O)(=O)c1ccc(Br)cc1 (centres undefined) | -1.5 | 8% | -1.1% | 1.9 | 17% | -0.9% | 4%
COCCn1c(=O)c(-c2cccs2)nc2cnc(N3CCN(C)CC3)nc21 | x | x | -0.8% | u | 16% | x | x
CCn1nc(-c2ccccc2)c2nc3ccccc3nc21 | -2.7 | u | 15% | u | -8% | -3.2% | -7%
OCC[C@@H]1C[C@@H](O)[C@H](O)[C@@]2(OCCc3ccccc32)O1 | -7.4 | -32%[inhibitor] | -0.5% | 1.8 | 10% | -0.1% | 7%
O=S(=O)(c1ccc(NC(=S)N/N=C/c2ccc(Oc3ccccc3)cc2)cc1)N1CCOCC1 | 3.6 | -1% | 9.0% | 0.4 | 15% | x | -8%
O=C(Nc1cccc(C(F)(F)F)c1)Nn1cnnc1 | -6.0 | -12% | -1.1% | 3.2 | 3% | -2.9% | 4%
CC(C)c1nc2c(s1)CCc1onc(-c3cccc([N+](=O)[O-])c3)c1-2 | -2.0 | 8% | 1.0% | x | x | 1.5% | u
CCOC(=O)N1CCC(N2Cc3cccc(C(=O)NCc4ccccn4)c3C2=O)CC1 | -4.3 | -47%[inhibitor] | 0.6% | 4.3 | -6% | -2.8% | -15%
O=C(Nc1ccc(F)cc1)Nc1nnc(-c2ccncc2)s1 | 5.0 | -2% | 2.8%[38.3 µM] | 0.0 | -14% | -7.2% | u
CCN(CC(=O)NCc1ccc(F)cc1)C(=O)C1CCN(C(=O)Nc2ccccc2)CC1 | -1.5 | -26% | 2.7%[38.3 µM] | -0.4 | 12% | -0.5% | 7%
COc1ccc(Nc2nc(N)c([N+](=O)[O-])c(N3CCN(C)CC3)n2)cc1 | -0.4 | -2% | -0.1% | 7.0 | 10% | 0.3% | 8%
CN(C)c1ncc2nc(-c3ccc(Cl)cc3)c(=O)n(CCC#N)c2n1 | x | x | 2.4% | u | 9% | x | x
COC(=O)C1C(O)=C(C=NCC(C)N=CC2=C(O)C(C(=O)OC)C(C)(C)CC2=O)C(=O)CC1(C)C (centres undefined) | -3.4 | u | 1.0% | 3.0 | 12% | 1.0% | 3%
O=[N+]([O-])c1cccc(OCCN2CCC(Cc3ccccc3)CC2)c1 | -0.4 | -42%[inhibitor] | 11% | -1.8 | -14% | x | 12%
N#CC(c1ccc(Cl)cc1)(c1ncc(C(F)(F)F)cc1Cl)N1CCOCC1 (centres undefined) | -1.1 | u | 4.6% | 5.9 | -9% | 2.7% | -25%
COc1cccc(-n2nnnc2SCC(=O)NC2CCCCC2)c1 | -2.7 | -7% | -1.8% | x | 10% | x | 6%
O=C(c1ccc(Cl)cc1)N1CCN(c2ccnc3cc(Cl)ccc23)CC1 | -0.1 | 11%[15.4 µM] | -1.9% | -17 | -13% | x | 40µM*
Cc1ccc(C(=O)NC(=S)Nc2ccccc2C(F)(F)F)cc1 | -0.8 | 31% | 5.9% | -0.5 | -8% | -1.0% | -2%
COC(=O)C1=CN(C)C=C(C(=O)OC)C1c1ccsc1 | -0.2 | 14% | 1.5% | 4.3 | 12% | 7.9µM* | -6%
COc1ccc(-n2nnnc2-c2cccnc2)cc1 | -1.3 | 10% | 0.5% | 1.9 | 25% | -2.2% | 12%
COc1cccc(/C=C/C2=CC(C)(C)NC(=S)N2)c1 | -3.5 | -10%[15.4 µM] | 1.8% | 0.9 | 15% | x | -6%

The listing continues:
SMILES | D2 ag | gsp agonist | PINK1 modulator | Menin MLL FP FL | Sfp PPTase inh | ClpP mod | gsp antagonist
Cc1ccccc1NC(=O)OCCN1CCN(Cc2ccccc2)CCC1=O | -7.2 | 16% | -0.4% | 2.3&5.3 | 14%&-1% | -2.7% | 0%
CCOCCCNC(=O)c1ccc(Cn2c(=O)[nH]c3ccsc3c2=O)cc1 | -1.8 | u | 9.0% | -2.4 | 12% | x | -11%
COc1ccccc1NS(=O)(=O)c1cccc(C(=O)NCC(C)(C)N2CCOCC2)c1 | -1.5 | u | 0.2% | x | 19% | 0.0% | -2%
O=C(Nc1nc(-c2ccc(S(=O)(=O)N3CCCC3)cc2)cs1)c1cccs1 | 4.3 | -2% | 0.0% | 0.0 | 13% | u | u
COCCNC(=O)CN(C(=O)CCC(=O)Nc1ccccn1)c1ccccc1F | -2.2 | -2%[15.4 µM] | -0.9% | -1.4 | 19% | x | x
CCN(C(=O)COC(=O)c1ccccc1Cc1ccccc1)C1CCS(=O)(=O)C1 (centres undefined) | 0.4 | 11% | -7.5% | x | x | -0.7% | -9%
CCOc1ccc(/C=C/C(=O)Nc2ccc3[nH]c(=O)[nH]c3c2)cc1 | 0.2 | 6% | -0.6% | -7.1 | -2% | -3.1% | 10%
O=C(CCN1C(=O)c2cccc3cccc(c23)C1=O)NCc1cccnc1 | -2.3 | 1%[15.4 µM] | -1.0% | -0.9 | -6% | x | -1%
CCCN1C(=O)c2ccccc2NC1c1ccc(C)cc1 (centres undefined) | 0.6 | -2%[15.4 µM] | 1.9% | 4.8 | 0% | x | -6%
